# VACV mCherry inh: inhibitors of vaccinia virus infection (mCherry reporter signal); Potency, µM (highest dose often 36.5 µM), without a hit: at the top dose activity change, negative = inhibition, actives largely listed as inhibitors; hit rate 0.63% among 310,000; Vaccinia virus mCherry reporter infection, fluorescence; about a quarter of the inactives have no number; active = well fitted inhibition curve with a large enough effect; inconclusive = small, poorly fitted or top-dose-only effect; inactive = no such curve, though single readings can be large or run the other way; tested in A549 cells; also: nearly all actives have a fitted effect of over 35% in size; inactives centre near -10
# Vaccinia Venus: inhibitors of vaccinia virus (Venus reporter) | Potency, µM (series often up to 36.5 µM), for inactives: top-dose activity change, negative = inhibition, most hits filed as inhibitors | Vaccinia virus Venus reporter expression, fluorescence | hit rate 0.46% among 330,000; active means well fitted inhibition curve with a large enough effect; inconclusive means small, poorly fitted or top-dose-only effect; inactive means no such curve, though single readings can be large or run the other way; tested in A549 cells; also: nearly all actives have a fitted effect of over 30% in size; inactives centre near -10
# Numbers without * were called inactive; i = inactive; ? = inconclusive; . = not tested or not shown; & = joins results of further samples; [ ] = remark or other dose. % is scaled to controls: 0 for no effect and ±100 for the full control effect; potency is read from the fitted curve at half-maximal effect.
# The line under a structure holds: VACV mCherry inh, Vaccinia Venus
- C[C@@H]1CN(C2CCN(Cc3nc(C(c4ccccc4)c4ccccc4)no3)CC2)C[C@H](C)O1
 : -3%, -10%
- Cc1ccc(C(C)C)c(OCCNC(=O)c2ccccc2O)c1
 : ?, ?
- CC1(C(=O)Nc2ccccc2)CCN1C(=O)C1(c2ccccc2)CC1 (configuration not stated)
 : 8%, 1%
- CC1(C(=O)NS(=O)(=O)C2CC2)CCN(C(=O)c2cccc(OC(F)(F)F)c2)C1 (configuration not stated)
 : 15%, 2%
- COC(=O)C1=C(c2cc3ccccc3s2)C[C@@H]2CC[C@H]1N2C(=O)N1CCOCC1
 : ?, ?
- COc1ccc(S(=O)(=O)NCC(c2ccc(N(C)C)cc2)N2CCc3ccccc32)cc1 (configuration not stated)
 : -10%, -17%
- CC/C=C\[C@H](O)[C@H](O)C1=C(C)C(=O)[C@]2(O1)C(=O)N[C@@](OC)(C(=O)c1ccccc1)C2O (some centres not stated)
 : -6%, 0%
- Cc1cccc(CN2CCN(Cc3ccc(Cl)cc3)CC2)c1
 : -13%, -1%
- CCc1ccc(NC(=O)Cn2c(=O)n(Cc3ccco3)c(=O)c3cccnc32)cc1
 : i, -17%
- N#Cc1ccccc1Cn1cc(/C=C/[N+](=O)[O-])c2ccccc21
 : ?, ?
- O=C(O)C1CC=CCC1C(=O)N1CC=C(c2ccccc2)CC1 (configuration not stated)
 : -10%, -10%
- CCNC(=O)CC1C(=O)N(c2ccc(C)cc2)C(=O)N1CCC(C)C (configuration not stated)
 : -5%&-4%, -2%&-8%
- O=C(Nc1ccc2c(c1)OCCO2)C1CCN(S(=O)(=O)c2ccccc2)CC1
 : -6%, -9%
- COc1ccc(C(=O)/C(=C\c2ccco2)N2C=CC=CC2=C(C#N)C#N)cc1
 : ?, ?
- COc1cc(/C=N/NC(=O)c2cccc(S(=O)(=O)N3CCCC3)c2)ccc1O
 : i, -20%
- O=C(NCCc1ccccc1)c1cnc(Cl)c(Cl)c1
 : -13%, -14%
- Cc1ccccc1NC(=S)NC(C)C(c1cccs1)N1CCOCC1 (configuration not stated)
 : -7%, -10%
- CCOC1=NN(c2ncc(C(F)(F)F)cc2Cl)C(=O)C1
 : -2%, 0%
- Cc1ccc(C(=O)COC(=O)C2CCC2)cc1
 : -17%, -15%
- COc1ccc(S(=O)(=O)N2CCOCC2)cc1C(=O)NCc1ccccc1CN1CCCC1
 : i, -16%
- COc1cc(C(=O)OCC(=O)N(C)Cc2ccccc2)cc(OC)c1OC
 : ., -9%
- CSc1ncc(S(=O)(=O)c2ccccc2)c(=O)[nH]1
 : 3%, 15%
- COCCN(C(=O)COC(=O)c1cc2c(s1)CCC2)c1c(N)n(Cc2ccccc2)c(=O)[nH]c1=O
 : -13%, -7%
- Cc1oc(-c2ccc3ccccc3c2)nc1CN(C)C(C)c1ccncn1 (configuration not stated)
 : -9%, -9%
- CSc1nc2c(c(-c3ccc(O)cc3)c1C#N)CCC2
 : ., ?
- O=C1OCCN1C(=O)[C@H]1[C@H](c2ccc(Cl)cc2)C(c2cccc(Cl)c2)=NN1c1ccccc1
 : ?, -11%
- Cc1cc(C)nc(SCC(=O)OCN2C(=O)c3ccccc3C2=O)n1
 : -14%, 3%
- O=C(Cc1cc(=O)[nH]c(=O)[nH]1)NCC1CCCO1 (configuration not stated)
 : -23%, 3%
- Cc1ccc(-c2nc(NCCCN(C)C)c3ccccc3n2)cc1
 : -5%, -21%
- COc1ccc(CNC(=O)C(=O)NCC2OCCN2S(=O)(=O)c2ccc3c(c2)OCCO3)cc1 (configuration not stated)
 : i, -13%
- CC(C)(Sc1ccc(CCN(CCCCC2CCCCC2)C(=O)NC2CCCCC2)cc1)C(=O)O
 : i, -10%
- CC(C)N(Cc1ccccc1)C(=O)CN1C(=O)CSc2ccc(S(=O)(=O)N3CCCC3)cc21
 : -19%, -16%
- CCn1c(SCC(=O)c2ccc(OC)cc2)nnc1C(C)NC(=O)c1ccc(OC)cc1 (configuration not stated)
 : ., -16%
- CC[N+](C)(CC)CC(=O)OCC1C(C)C=C(C)CC1C (configuration not stated)
 : i, -13%
- CCn1nnnc1Oc1ccc(Cl)cc1
 : -3%, -10%
- COc1ccc(C2C(C(=O)Nc3ccccn3)=C(C)Nc3ncnn32)c(OC)c1 (configuration not stated)
 : -2%, -2%
- CC(C)C(=O)N1CCN(c2c(Cl)cccc2[N+](=O)[O-])CC1
 : -1%, -9%
- Cc1c(C(=O)OCC(=O)N(CC(C)C)c2c(N)n(Cc3ccccc3)c(=O)[nH]c2=O)oc2ccccc12
 : -9%, ?
- CC(c1ccco1)N(C(=O)c1cccc(S(=O)(=O)N(C)C)c1)c1ccccn1 (configuration not stated)
 : -9%, 0%
- N#Cc1ccc(C(=O)N(Cc2ccccc2)c2ccccc2)cc1
 : -10%, 4%
- CCOCCCNC(=O)N[C@H](C(=O)OC)C(C)CC (some centres not stated)
 : i, -8%
- O=C(CN1C(=O)NC2(CCc3ccccc3C2)C1=O)NCc1ccco1 (configuration not stated)
 : 2%, 0%
- COc1ccc(C(=O)NCC(=O)OCc2ccccc2F)cc1
 : i, -8%
- Cc1nc2cc(Cc3ccccc3)ccc2o1
 : -21%, -4%
- CN1CCC(N(CCc2ccccc2)C(=O)CCC(=O)O)CC1
 : -13%, -4%
- COc1ccc(-c2cc(N3C(=O)Nc4ccccc4N3O)n[nH]2)cc1OC
 : -13%, 2%
- COc1ccc(NC(=O)c2nc(-c3ccc(C)cc3)n3c2CCCCC3)cc1
 : -12%[7.34 µM], -4%[7.34 µM]
- O=C(Nc1ccccc1)c1cccnc1NCCc1ccccc1
 : -4%, -12%
- CC(C)OCCCNC(=O)CCN1C(=O)COc2ccccc21
 : -15%, -10%
- Cc1ccc(NC(=O)CSc2nnc(-c3cccnc3)n2CCN2CCCCC2)cc1
 : -9%, -6%
- O=C(Nc1nccs1)c1ccc(Br)c(S(=O)(=O)N2CCCC2)c1
 : ?, -29%
- C#CCOCCOCCOCCNc1nc(N2CCOCC2)nc(N2CCN(C(=O)[C@H](C)n3cc(CCC(=O)O)nn3)CC2)n1
 : -7%, 9%
- Cn1c(=O)n(C)c2cc(N3CCOCC3)c(NS(=O)(=O)c3ccc(Cl)cc3)cc21
 : -6%, -10%
- COc1cc(/C=C2\SC(=O)N(CCNC(=O)c3sc4cc(F)ccc4c3Cl)C2=O)cc(OC)c1OC
 : 1%, -21%
- COc1cc2c(C#N)c(N3CCN(c4ccccc4OC)CC3)nc(N)c2c(N)n1
 : ., ?
- O=C1CC(N2CCc3ccccc32)C(=O)N1c1ccccc1 (configuration not stated)
 : -18%[7.34 µM], -2%[7.34 µM]
- CCn1c(P(C)(=O)O)nc2cc(NC(=O)c3ccccc3Cl)ccc21
 : i, 2%
- CCCN(C(=O)c1cc2c(s1)-c1ccccc1SC2)c1ccccc1F
 : -11%, -12%
- COC(CN1CCc2c(C)nc3c(C#N)cnn3c21)OC
 : -10%, 9%
- Cc1ccccc1NC(=O)COC(=O)CCSc1ccccc1
 : -8%, -6%

# More structures:
# The line under a structure holds: VACV mCherry inh, Vaccinia Venus
- CCOC(=O)CSc1nnc(CNC(=O)c2cccs2)n1Cc1ccccc1
 : -7%, -2%
- Cc1cccc(CS(=O)(=O)c2ncc(Cl)c(C(=O)Nc3nc4ccc(F)cc4s3)n2)c1
 : ?, ?
- Cc1ccccc1CNCc1c(C(=O)O)c(C)n(Cc2ccc(F)cc2Cl)c1C
 : -1%, -1%
- CCOC(=O)c1sc(NC(=O)c2ccc(S(=O)(=O)N(C)C)cc2)nc1C
 : ., ?
- Cc1nn(Cc2ccccc2Cl)c(C)c1NC(=O)NC12CC3CC(CC(C3)C1)C2
 : -29%, ?
- CCC1CCC2(CC1)NC(=O)N(CC(=O)c1c(C)[nH]c3ccccc13)C2=O (configuration not stated)
 : -28%, ?
- Cc1cc(C(=O)Nc2ccc(Cl)cc2)c(C)n1Cc1cccs1
 : -17%[7.34 µM], -22%[7.34 µM]
- CCOc1ccccc1/C=N/NC(=O)CSc1n[nH]c(=O)[nH]c1=O
 : -22%, 1%
- CCOC(=O)c1sc2ncnc(N3CCN(C(=O)OCC)CC3)c2c1C
 : ., -18%
- COc1ccc2c(c1)c1nc3ccccc3nc1n2Cc1ccc(OC(C)C)c(OC)c1
 : -15%, -3%
- Cc1ccc(NC(=O)N(Cc2cn(C)c3ccccc23)C2CCCCC2)cc1C
 : -27%, -9%
- COc1ccc(NC(=O)CN(C)C(=O)CCC2CCCC2)cc1
 : -11%, -8%
- C/C(=N\Nc1cccc2cccnc12)c1ccc(N)cc1
 : -22%, -5%
- O=C(OCc1ccccc1)N1CCCC2CC1c1ccccc12 (configuration not stated)
 : 0%, -9%
- CCCCc1nc2cc(C(=O)N3CCCC(COC)C3)ccc2o1 (configuration not stated)
 : -4%, -24%

# Carrying on.
molecule	VACV mCherry inh	Vaccinia Venus
COc1ccc([N+](=O)[O-])cc1NC(=O)C(C)OC(=O)c1ccccn1 (configuration not stated)	-4%	-2%
Fc1ccc(COc2ccccc2CNCc2ccncc2)cc1	-10%	-11%
CC(C)C1COc2cc3oc(=O)ccc3cc2O1 (configuration not stated)	-15%	-14%
COc1ccc2c(c1)-c1c(ssc1=S)C(C)(C)N2S(=O)(=O)c1ccc(C)cc1	?	?
Cc1ccc(NC(=O)C(C)Sc2nnc(-c3cccnc3)o2)cc1 (configuration not stated)	-17%	-9%
Cc1ccc(NC(=O)CN2C(=O)S/C(=C\c3cc(C)n(-c4cccc(C(=O)O)c4)c3C)C2=O)cc1	i	-6%
CCCCOc1ccc(NC(=O)CSc2cccc3cccnc23)cc1	-4%	-10%
Oc1ccc(NCc2ccc(OCc3ccccc3)cc2)cc1	-10%	-1%
Cc1c(OC(C)C(=O)NCc2ccncc2)ccc2c3c(c(=O)oc12)CCCC3 (configuration not stated)	?	?
CCN(CCNC(=O)C1=C(C)C(=O)OC12CCC(C)CC2)c1ccccc1 (configuration not stated)	-19%	-15%
CC(C)(C)NCC(O)c1ccc(O)c(CO)c1 (configuration not stated)	-26%&-13%	-13%&0%
CCOC(=O)C(C(=O)NCc1ccc(C)cc1)c1ncc(C(F)(F)F)cc1Cl (configuration not stated)	.	-16%
O=C1/C(=C/c2ccco2)SC(=S)N1c1cccnc1	?	2%
Cc1ccc2c(c1)[C@H]1[C@H](CO2)[C@H](c2ccccc2)[C@]2(C)C(=O)N(Cc3ccco3)CC(=O)N12	i	-12%
COc1ccc(-c2nnc(N)s2)cc1OC	?	-27%
Cc1csc2nc(CNC(=O)C3CC=CCC3C(=O)O)cn12 (configuration not stated)	11%	-1%
C/C(=N/NC(=O)c1ccc(C)s1)c1cccc(NC(=O)COc2ccc(Cl)cc2C)c1	-8%	-7%
CNC(=O)c1cc2ccc(OC)cc2oc1=O	.	-26%
O=C(c1cccs1)N(Cc1cccnc1)c1nc2c(F)cc(F)cc2s1	-23%	-23%
CC1=C/C(=N\NC(=S)Nc2cccnc2)CC(C)(C)C1	2%	-9%
Cc1ccc(NC(=O)COc2ncnc3c(Cl)cc(Cl)cc23)cc1[N+](=O)[O-]	-2%	-7%
CN1CCN(C(CNC(=O)c2ccccc2F)c2ccc3c(c2)OCO3)CC1 (configuration not stated)	5%	3%
NCCCNC(=S)NCCCN(Cc1ccc(Cl)cc1)c1ccc(Br)cn1	-3%	-12%
CSCC(=O)N1CCCC(N2CCN(c3ccc(F)cc3)CC2)C1 (configuration not stated)	-5%	-14%
Cc1cccc(C)c1NC1=NCCCCC1	i	-9%
NC(=O)CCS(=O)(=O)c1ccc(Cl)cc1	-7%	-6%
FC(F)(F)c1cnc(NNC(=S)Nc2ccccc2)c(Cl)c1	-19%	-28%
Nc1nc(N)nc(-c2cc(F)ccc2O)n1	?	10µM*
CC1(C)CCC(C)(C)NC(=S)N1	-14%	-2%&-8%
CCOc1ccc(-n2c(N)c(C(=O)NCc3cccnc3)sc2=S)cc1	-16%	-6%
N/C(Cc1ccc([N+](=O)[O-])cc1)=N\OC(=O)C(c1ccccc1)c1ccccc1	-18%	-5%
CCc1nn2c(=O)cc(COC(=O)c3ccccc3NC(=O)c3ccc(C(C)(C)C)cc3)nc2s1	-13%	-5%
CCn1c(O)c(/C(C)=N/N2CCCCC2c2cccnc2)c(=O)[nH]c1=S (configuration not stated)	i	-8%
Cc1cc(=O)n2c(-c3ccccc3C)n[nH]c2n1	.	5%
Cc1cccc(C)c1NC(=O)c1cc(S(=O)(=O)N2CCc3ccccc32)cn1C	i	-22%
O=C(NCC1CCCO1)c1ccc(Cl)c(S(=O)(=O)Nc2ccccc2)c1 (configuration not stated)	-11%	-13%
COc1ccc(N2C(S)=C(C#N)C(=O)NC2c2ccco2)cc1 (configuration not stated)	-8%	-14%
O=C(Nc1ccc2oc(-c3ccc(Cl)c(Cl)c3)nc2c1)c1ncn[nH]1	-14%	-7%

# Screens as filed in PubChem BioAssay.
